Methyltransferases = Primary Screen for Target Class Profiling of Small Molecule Inhibitors of Methyltransferases. purified enzyme, MTase-Glo SAH luminescence; active compounds read low. AID 1745853, 2022. 3.9% of 25,000 active. calls only at 40 µM; active = -50% or lower on at least one of six enzymes; inconclusive = the cases between; inactive = as a rule above -30% on all six;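 also: enzymes were COMT GAMT GNMT HNMT NNMT and PNMT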
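Each enzyme was assayed with SAM and its substrate. SAH formation detected by MTase-Glo luminescence; single-point 40 uM screen[…].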
Calls only; i = inactive; ? = inconclusive; + = active, no number. % is scaled to controls: 0 for no effect and ±100 for the full control effect.

mol	Methyltransferases
Cc1occc1C(=O)N1CCCC(O)(CNC(=O)N2CCOCC2)CC1 (stereo unspecified)	i
O=C(c1ccc2c(=O)nc3c(-c4ccccc4)n[nH]n3c2c1)N1CCN(c2ccccn2)CC1	i
CCCn1c(=O)c2ccc(C(=O)NC(C)C)cc2n2c(=O)n(Cc3ccc(F)cc3)nc12	i
COc1ccc(OC)c2c1cc1n2CC(C)(C(=O)NC2CCCCCC2)N(Cc2cccnc2)C1=O (stereo unspecified)	i
CCOc1ccc(N2C(=O)c3cc4sc(CC)cc4n3CC2(C)C(=O)NC2CCCCCC2)cc1 (stereo unspecified)	i
CC(C)=C1C[C@@]2(C)C(=CC1=O)CC[C@@H](O)[C@@H]2C	i
Cc1ccc(C)c(NC(=O)Cn2ccn3nc4c(c3c2=O)CCCCC4)c1	i
CN1[C@@H](CCC(=O)NCc2ccco2)CNC(=O)[C@@H]2[C@H]1CCN2Cc1nc2ccccc2n1C	i
CCc1ccc(-c2cc3n(n2)CC(C)(C(=O)NC2CCCCC2)N(CCN2CCCC2)C3=O)cc1 (stereo unspecified)	i
CC(C)c1cc2n(n1)CC(C)(C(=O)NC1CCCCC1)N(Cc1cccc(Cl)c1)C2=O (stereo unspecified)	i
Cc1cccc(C(=O)N2CCCCCCN(C)C(=O)[C@@H]3CCC[C@@H]32)c1	i
COc1cc(OC)cc(C(=O)Nc2ccc(Cl)c(-c3nc4ccc(N(C)C)cc4[nH]3)c2)c1	+
CC1(C(=O)NC2CCCCCC2)Cn2c(ccc2-c2ccccc2)C(=O)N1Cc1cccs1 (stereo unspecified)	i
Cc1ccc(NC(=O)CSc2nnc3n(CCCOC(C)C)c(=O)c4ccccc4n23)cc1C	i
C[C@H]1O[C@@H](O[C@H]2CC[C@@]3(C)C(CC[C@]4(C)C3CC=C3C5CC(C)(C)CC[C@]5(C(=O)O)CC[C@]34C(=O)O)C2(C)C)[C@H](O)[C@@H](O)[C@@H]1O (stereo partly specified)	i
CCOc1ccc(CCN2C(=O)c3ccc(-c4ccco4)n3CC2(C)C(=O)NCc2ccc(Cl)cc2)cc1 (stereo unspecified)	i
Cn1c(=O)n(C)c2cc(CNCCNC(=O)c3nonc3N)ccc21	i
CC1(C)CC[C@]2(C(=O)O[C@@H]3O[C@H](CO[C@@H]4O[C@H](CO)[C@@H](O)[C@H](O)[C@H]4O[C@@H]4O[C@H](CO)[C@H](O)[C@H](O)[C@H]4O)[C@@H](O)[C@H](O[C@@H]4O[C@H](CO)[C@@H](O)[C@H](O)[C@H]4O)[C@H]3O)CC[C@]3(C)C(=CCC4[C@@]5(C)CC[C@H](O[C@@H]6OC[C@@H](O)[C@H](O)[C@H]6O)[C@@](C)(C(=O)O)C5CC[C@]43C)[C@@H]2C1 (stereo partly specified)	i
CCOc1cccc(CN2CCc3c(c(CN(C(C)=O)c4ccccc4)nn3C)C2)c1O	i
Cc1c(Cl)cccc1NC(=O)N1CCn2cccc2C1C(C)C (stereo unspecified)	i
CC1(C(=O)NCc2ccccc2)Cn2c(cc3ccccc32)C(=O)N1C1CCCCC1 (stereo unspecified)	i
Cc1cccc(CN2C(=O)c3ccc(-c4ccccc4)n3CC2(C)C(=O)NC2CCC(C)CC2)c1 (stereo unspecified)	i
CC1=C[C@@H](CNS(C)(=O)=O)[C@H](C(C)C)C[C@H]1CC(=O)O	i
COc1ccc(C(=O)Cn2nc3n(C(C)C)c(=O)c4ccc(C(=O)NC5CCCCC5)cc4n3c2=O)cc1	i
O=C(Cc1cccc(F)c1)NCc1nnc2cc(-c3nc(C4CC4)no3)ccn12	i
CC1(C(=O)NC2CCCCCCC2)Cn2c(cc3sccc32)C(=O)N1c1ccc(Cl)cc1 (stereo unspecified)	i
CS(=O)(=O)N[C@H]1C[C@H]2C(=O)NC[C@@H](CCC(=O)N3CCCCC3)N2C1	i
O=c1[nH]ccc2c(S(=O)(=O)N3CCCNCC3)cccc12	?
COc1ccc([C@@]2(O)c3c(ccc4c3OC(C)(CCC=C(C)C)C=C4)NC(=O)[C@@H]2OC)cc1 (stereo partly specified)	i
Cc1nc(C)c(CC(=O)N2CCCC(C)(Cc3ccc4c(c3)OCO4)C2)s1 (stereo unspecified)	i
Cc1cc2[nH]c(=O)[nH]c2cc1S(=O)(=O)N1CCN(C2CCCCC2)CC1	i
CC(C)NC(=O)c1ccccc1OCC1CCCN(Cc2cn(C)c3ccccc23)C1 (stereo unspecified)	+
Cc1ccc(N2CCN(C(=O)CCc3c(C)nc4c(c3C)c(=O)n(C)c(=O)n4C)CC2)c(C)c1	?
Cc1ccccc1-n1cc(CNC(=O)C(c2cccc(F)c2)N(C)C)cn1 (stereo unspecified)	i
CC(C)c1ccc(N2C(=O)c3ccccc3CC2(C)C(=O)NCc2ccccc2)cc1 (stereo unspecified)	i
Cn1c(=O)c2nc(/C=C/c3cccc(Cl)c3)n(C)c2n(C)c1=O	i
CC1(C(=O)NC2CCCCC2)Cn2nc(-c3ccco3)cc2C(=O)N1Cc1ccc(Cl)cc1 (stereo unspecified)	i
Cc1ccc(C)c(N2CCN(CCN3C(=O)c4ccc(-c5ccco5)n4CC3(C)C(=O)NC3CCCCCC3)CC2)c1 (stereo unspecified)	i
COCc1ncc(C)n1CC1CCN(C(=O)C2(c3ccc(OC)cc3)CC2)CC1	i
c1cncc(-c2ccnc(NCC(c3cccnc3)N3CCCCC3)n2)c1 (stereo unspecified)	i

Arranged by molar mass (smallest number first): some entries from above.
mol	Methyltransferases
Cn1c(=O)c2nc(/C=C/c3cccc(Cl)c3)n(C)c2n(C)c1=O	i
Cc1ccccc1-n1cc(CNC(=O)C(c2cccc(F)c2)N(C)C)cn1 (stereo unspecified)	i
COCc1ncc(C)n1CC1CCN(C(=O)C2(c3ccc(OC)cc3)CC2)CC1	i
CC(C)c1ccc(N2C(=O)c3ccccc3CC2(C)C(=O)NCc2ccccc2)cc1 (stereo unspecified)	i
CC1(C(=O)NC2CCCCC2)Cn2nc(-c3ccco3)cc2C(=O)N1Cc1ccc(Cl)cc1 (stereo unspecified)	i
Cc1ccc(C)c(N2CCN(CCN3C(=O)c4ccc(-c5ccco5)n4CC3(C)C(=O)NC3CCCCCC3)CC2)c1 (stereo unspecified)	i

The list continues.
mol	Methyltransferases
COc1ccccc1CNC(=O)CCc1nnc2n(Cc3ccc(F)cc3)c(=O)c3ccccc3n12	i
CCCN1C(=O)c2c(C(=O)NCCc3ccco3)ncn2CC1(C)C(=O)NCc1ccc(C)cc1 (stereo unspecified)	i
CC(C)CCn1c(=O)c2ccc(C(=O)NC3CCCC3)cc2n2c(=O)n(CC(=O)NC3CCCC3)nc12	i
CN[C@H]1CCN(C(=O)c2ccc(Nc3ncc(F)c(-c4cnc(C)n4C(C)C)n3)cc2)C1	?
CC(C)CCn1c(=O)c2ccc(C(=O)NC(C)C)cc2n2c(=O)n(CC(=O)Nc3ccccc3F)nc12	i
COc1ccccc1CCNC(=O)c1cc2n(n1)CC(C)(C(=O)NC1CCCCCC1)N(C)C2=O (stereo unspecified)	i
COc1ccccc1CN1C(=O)c2cc3oc(C)cc3n2CC1(C)C(=O)NC1CCCCC1 (stereo unspecified)	i
CCCCc1ccc(NS(=O)(=O)c2ccc(F)cc2)cc1	i
Cc1nc2ccccc2n1CCNS(=O)(=O)c1ccc(F)cc1	i
Cc1ccc(NC2=N[C@H]3[C@@H](O)[C@H](O)C[C@H](C(=O)NCc4cccnc4)[C@H]3S2)cc1	i
Cc1ccc2occ(-c3cc(-c4ccc(F)cc4)nc4c3COc3ccc(F)cc3-4)c(=O)c2c1	?
CC1CCCCN1C(=O)Cn1c(=O)oc2cc(S(=O)(=O)N3CCCCC3)ccc21 (stereo unspecified)	i
CC(C)OCCCNC(=O)C1(C)Cn2c(cc3ccccc32)C(=O)N1Cc1ccc(OC(C)C)cc1 (stereo unspecified)	i
Cc1noc(-c2ccc(C(C)(C)C)cc2)c1C(=O)NCCOc1ccccc1	i
Cc1ccccc1Cn1nc2n(CCCOC(C)C)c(=O)c3ccccc3n2c1=O	i
CC1CCC2C(C(=O)O)=CC3CC(C)(C)CC132 (stereo unspecified)	i
CCOC(=O)c1cc2n(n1)CC(C)(C(=O)NC1CCCC1)N(CCc1cccs1)C2=O (stereo unspecified)	i
Cc1cccc(NC(=O)CSc2nnc3n(Cc4ccccc4)c(=O)c4ccccc4n23)c1	i
CCCC1c2ccc(C)n2CCN1C(=O)NCc1cccc(OC)c1 (stereo unspecified)	i
Cc1ccc(Cn2nc3n(Cc4ccccc4)c(=O)c4ccc(C(=O)NCC(C)C)cc4n3c2=O)cc1	i
COc1cc2c(Nc3ccc(Cl)c(Cl)c3F)ncnc2cc1OCC1C[C@@H]2CN(C)C[C@@H]2C1 (stereo partly specified)	+
Cc1cccc(Cn2nc3n(CCC(C)C)c(=O)c4ccc(C(=O)NCC(C)C)cc4n3c2=O)c1	i
Cc1c(NC(=O)N2CCOCC2)ccc2c1c1ccccc1n2C(C)C	i
Cc1ccccc1NC(=O)N1Cc2c(sc3c2CCCC3)-n2cccc2C1c1ccccc1 (stereo unspecified)	i
Cc1ccc(Cl)cc1NC(=O)Cn1nc2n(CC(C)C)c(=O)c3ccccc3n2c1=O	i
CCNC(=O)N1CC(C(=O)NCc2cccc(C)c2)CC(c2ccc(F)c(C)c2)C1 (stereo unspecified)	i
O=c1c2ccccc2n2c(SCc3ccccc3)nnc2n1Cc1ccc(F)cc1	i
COc1cccc(CN2C(=O)c3nc4ccccc4n3CC2(C)C(=O)NC2CCC(C)CC2)c1OC (stereo unspecified)	i
COc1ccc(S(=O)(=O)c2nnn3c2nc(Nc2ccccc2C)c2ccccc23)cc1	i
CC(C)CCNC(=O)C1(C)Cn2nc(C(=O)NCc3ccc(OC(C)C)cc3)cc2C(=O)N1C (stereo unspecified)	i
COc1cccc(-c2cccc(C(=O)N3CCN(C(C)=O)CC3)c2)c1	i
N#Cc1ccc(S(=O)(=O)N2CCC(C3CCNC3)CC2)cc1 (stereo unspecified)	i

Reprinted at random: two compounds from above.
mol	Methyltransferases
Cc1ccc(Cl)cc1NC(=O)Cn1nc2n(CC(C)C)c(=O)c3ccccc3n2c1=O	i
N#Cc1ccc(S(=O)(=O)N2CCC(C3CCNC3)CC2)cc1 (stereo unspecified)	i

(listing goes on)
mol	Methyltransferases
CCOC(=O)c1cc2n(n1)CC(C)(C(=O)NC1CCC(C)CC1)N(c1ccc(C)c(C)c1)C2=O (stereo unspecified)	i
COCc1nncn1C1CCN(S(=O)(=O)c2ccc(Br)cc2)CC1	i
COc1ccc(OC)c(CNC(=O)Cn2ccc3cc(S(=O)(=O)N4CCCCC4)ccc32)c1	i
CC1(C)CC[C@]2(C(=O)O)[C@H](O)C[C@]3(C)C(=CCC4[C@@]5(C)CC[C@H](O[C@@H]6OC[C@@H](O)[C@H](O)[C@H]6O)[C@@](C)(C(=O)O)C5CC[C@]43C)[C@@H]2C1 (stereo partly specified)	i
O=C(O)c1ccc(-c2nnc3ccc(NC(=O)C4CCC4)cn23)cc1	i
CN(C)c1ccc(-c2nnc3n(Cc4ccc(F)cc4)c(=O)c4ccccc4n23)cc1	i
COC[C@@H]1CN(S(=O)(=O)c2ccccc2C)C[C@H]1c1nc(C)no1	i
CCOC(=O)C1=CN(CC(=O)Nc2ccccc2C(F)(F)F)S(=O)(=O)N=C1C	i
COc1cc(S(=O)(=O)N2CCC(n3c(=O)[nH]c4ccccc43)CC2)ccc1-n1cnnn1	i
CC1(C(=O)NC2CCCCC2)Cn2c(cc3ccccc32)C(=O)N1Cc1ccco1 (stereo unspecified)	i
CCCOc1ccc(CN2C(=O)c3cc4ccccc4n3CC2(C)C(=O)NCc2ccccc2)cc1 (stereo unspecified)	i
CCc1cc2c(cc3n2CC(C)(C(=O)NC2CCC(C)CC2)N(c2cc(C)ccc2C)C3=O)s1 (stereo unspecified)	i
CCCN1C(=O)c2cc(-c3ccccc3)nn2CC1(C)C(=O)NCc1ccccc1 (stereo unspecified)	i
C[S+](=O)([O-])CCn1ncc2cc(OCc3cccc(-c4cccc(F)c4)c3)ccc21	i
CN(C(=O)c1ccc(Cl)nc1)C1CCCc2ccccc21 (stereo unspecified)	i
Cc1cc2c(cc1S(=O)(=O)Nc1ccc(Cl)cc1)n(C)c(=O)n2C	i
CC(C)(C)c1nn2c(SCC(=O)Nc3ccc(F)cc3)nnc2[nH]c1=O	i
Cc1ccc(N2C(=O)c3cc4ccccc4n3CC2(C)C(=O)NC2CCCC2)cc1Cl (stereo unspecified)	i
O=C1NC2(CCN(C(=O)c3ccc4c(c3)OCO4)C2)Oc2ccccc21 (stereo unspecified)	i
C=CCOc1c(OC)ccc2c1CN(Cc1ccco1)C(=O)CCN2CC(O)COCc1ccco1 (stereo unspecified)	i
C=C1CC[C@@H](O)[C@]2(C)C[C@H]3OC(=O)C(=C)[C@H]3CC12 (stereo partly specified)	i
Cc1ccc(Cn2c(=O)c3ccccc3n3c(CCC(=O)NCc4ccc5c(c4)OCO5)nnc23)cc1	i
O=C(Nc1ccccc1F)N1Cc2c(sc3c2CCCC3)-n2cccc2C1c1ccc(F)cc1 (stereo unspecified)	i
CC(C)OCCCn1c(=O)c2ccccc2n2c(CCC(=O)NC(C)c3ccccc3)nnc12 (stereo unspecified)	i
CC(=O)N1CCN(Cc2ccc([C@H](C)Nc3nccc(N4C(=O)OC[C@@H]4C(C)C)n3)cc2)CC1	i
Cc1ccc(NC(=O)N2Cc3c(sc4c3CCCC4)-n3cccc3C2c2cc(F)cc(F)c2)cc1 (stereo unspecified)	i
O=C(NCc1ccco1)C(NS(=O)(=O)c1cccc2nsnc12)c1ccccc1 (stereo unspecified)	i

High-throughput results from PubChem.

These rows are one share of the data (hit frequency here may not be typical).
